KCNQ2 inh = KCNQ2 potassium channel inhibitors, primary screen, cell-based, CHO-K1, FluxOR thallium flux, B-score (AID 2156). O88943. 20 min; active compounds read low; only compounds with negative scores are shown here; some inactives read as strong as hits. 310,000 compounds, 1.1% hits. B-score at 10 µM;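 active = fluorescence ratio B-score at most minus 3 library SDs, with starting brightness B-score within 2 library SDs, cut at about -5.5 in these data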
Target sequence (O88943 whole entry, looked up): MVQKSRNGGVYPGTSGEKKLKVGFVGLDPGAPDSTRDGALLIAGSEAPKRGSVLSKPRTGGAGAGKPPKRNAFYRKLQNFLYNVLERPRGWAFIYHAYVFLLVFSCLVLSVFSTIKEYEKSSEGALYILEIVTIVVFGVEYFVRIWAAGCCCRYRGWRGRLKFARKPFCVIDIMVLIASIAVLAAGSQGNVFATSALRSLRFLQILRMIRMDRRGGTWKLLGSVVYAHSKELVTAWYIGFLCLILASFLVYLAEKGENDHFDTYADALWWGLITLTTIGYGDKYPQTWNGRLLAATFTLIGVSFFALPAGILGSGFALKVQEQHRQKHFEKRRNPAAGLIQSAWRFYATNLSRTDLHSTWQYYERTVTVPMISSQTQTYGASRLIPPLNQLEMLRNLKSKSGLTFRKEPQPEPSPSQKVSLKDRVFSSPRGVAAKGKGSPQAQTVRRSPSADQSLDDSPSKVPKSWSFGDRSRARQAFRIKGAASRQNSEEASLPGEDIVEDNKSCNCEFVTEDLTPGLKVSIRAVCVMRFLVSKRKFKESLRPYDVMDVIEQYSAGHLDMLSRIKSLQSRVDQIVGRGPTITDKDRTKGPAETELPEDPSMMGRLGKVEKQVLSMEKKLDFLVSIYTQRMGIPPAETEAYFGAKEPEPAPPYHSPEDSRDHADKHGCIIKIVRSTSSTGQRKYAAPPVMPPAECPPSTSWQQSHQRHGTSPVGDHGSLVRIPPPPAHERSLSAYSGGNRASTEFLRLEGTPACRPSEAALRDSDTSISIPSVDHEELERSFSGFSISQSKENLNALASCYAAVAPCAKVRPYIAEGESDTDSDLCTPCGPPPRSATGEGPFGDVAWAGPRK
KCNQ2 inh baseline = also measured in KCNQ2 inh; calls as there; B-score; measured here: initial fluorescence intensity artifact check;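 brightness before thallium and not channel activity; 0 = typical well and far values either way flag optical interference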
An asterisk follows results filed as active; i = inactive. Not all compounds are listed, so the mix of outcomes need not match the whole.

no.	SMILES	KCNQ2 inh	KCNQ2 inh baseline
1	O=C(CN1C(=O)c2ccccc2C1=O)Nc1ccc2c(c1)OCO2	i	-1.34
2	c1ccc(CNc2nc(-c3cccnc3)nc3ccccc23)cc1	i	0.13
3	Cc1ccc(-c2[nH]nc(N)c2N=Nc2ccccc2C)cc1	i	-0.2
4	O=C(CN1CCN(c2ccc(Cl)cc2)CC1)NCc1cccs1	i	0.1
5	O=C(Nc1ccccc1)/C(=C/c1cccnc1)NC(=O)c1ccccc1	i	2.41
6	O=C(C1=C[C@@H](C2CC2)C[C@@H](OCCCCO)O1)N1CCN(Cc2ccccc2)CC1	i	-0.69
7	O=C(CNC(=O)c1ccc(N2C(=O)c3ccccc3C2=O)cc1)OCC(=O)c1ccccc1	i	-0.02
8	CCOC(=O)c1cccc(NC(=O)CSc2nnc(C3CCCCC3)n2CC)c1	i	-0.31
9	O=C(Nc1ccccc1OC(F)F)c1ccccc1	i	-0.97
10	C#CCNC(=O)C1=C[C@@H](c2ccc(Br)cc2)[C@H](CCCO)[C@@H](OCC)O1	i	-0.05
11	O=C(O)CSCc1ccc(Cl)cc1	i	1.23
12	COC(=O)CCC(=O)OC1(C)C(=O)C=C2C=C(C3CC3)N(c3cccc(C#N)c3)C=C2C1=O (stereo unspecified)	i	-0.37
13	O=C(Nc1ccccn1)c1cc2ccccc2o1	i	0.17
14	Cc1cc(NCc2ccc(F)cc2)nc2cc(Cl)ccc12	i	-0.97
15	COc1ccc2c(c1)c(C(O)CN1CCC(Cc3ccccc3)CC1)c(C)n2C (stereo unspecified)	i	0.94

Given with two lines to a compound: part of the list above
Below each compound: KCNQ2 inh, KCNQ2 inh baseline
[9] O=C(Nc1ccccc1OC(F)F)c1ccccc1
 : i, -0.97
[10] C#CCNC(=O)C1=C[C@@H](c2ccc(Br)cc2)[C@H](CCCO)[C@@H](OCC)O1
 : i, -0.05

Continued:
no.	SMILES	KCNQ2 inh	KCNQ2 inh baseline
16	O=C(CSc1cccc[n+]1[O-])Nc1cc2c(cc1Cl)C(=O)c1ccccc1C2=O	i	-2.04
17	Cc1ccc(S(=O)(=O)N2CCN(C3CC(=O)N(CCc4ccccc4)C3=O)CC2)cc1C (stereo unspecified)	i	-1.08
18	Cc1[nH]n(-c2ccccc2)c(=O)c1C(=O)c1ccccc1	i	-1.97
19	Cc1cc([N+](=O)[O-])c2c(c1C)C1C=CCC1C(c1ccccn1)N2 (stereo unspecified)	i	0.25
20	CCCc1nn(CCc2ccccn2)c(N)c1CC	i	1.93
21	Cc1c(NC(=O)c2ccc(N3CCCC3)c([N+](=O)[O-])c2)cccc1-c1nc2ccccc2s1	i	0.62
22	Cc1ccccc1NC(=S)N(CCCN1CCC(C)CC1)Cc1ccco1	i	1.79
23	CCCCn1c(SCc2ccccn2)nc2c1c(=O)n(C)c(=O)n2C	i	0.76
24	CN1/C(=C\C(=O)c2cccs2)C(C)(C)c2ccccc21	i	-1.97
25	COCCNc1c(-c2ccc(OC)cc2)nc2ccc(Cl)cn12	i	-0.8
26	Clc1ccc(CNc2cnccn2)cc1	i	-0.92
27	O=C(NCc1ccccn1)NC1CCCCC1	i	1.49
28	Cc1cc2c(c(=O)n1CCN(C)C)C(c1ccc(Cl)cc1)C(C#N)=C(N)O2 (stereo unspecified)	i	3.99
29	N/C(=N\OC(=O)COc1ccccc1)c1ccccn1	i	-0.01
30	Cc1ccsc1/C=C(\C#N)C(=O)Nc1c(C)n(C)n(-c2ccccc2)c1=O	i	2.49

Exported with values ahead of the structure: seven of the compounds above.
#	KCNQ2 inh	KCNQ2 inh baseline	SMILES
6	i	-0.69	O=C(C1=C[C@@H](C2CC2)C[C@@H](OCCCCO)O1)N1CCN(Cc2ccccc2)CC1
24	i	-1.97	CN1/C(=C\C(=O)c2cccs2)C(C)(C)c2ccccc21
17	i	-1.08	Cc1ccc(S(=O)(=O)N2CCN(C3CC(=O)N(CCc4ccccc4)C3=O)CC2)cc1C (stereo unspecified)
18	i	-1.97	Cc1[nH]n(-c2ccccc2)c(=O)c1C(=O)c1ccccc1
15	i	0.94	COc1ccc2c(c1)c(C(O)CN1CCC(Cc3ccccc3)CC1)c(C)n2C (stereo unspecified)
11	i	1.23	O=C(O)CSCc1ccc(Cl)cc1
25	i	-0.8	COCCNc1c(-c2ccc(OC)cc2)nc2ccc(Cl)cn12

(list continues)
no.	SMILES	KCNQ2 inh	KCNQ2 inh baseline
31	S=C(NCCCN1CCOCC1)N1CCN(c2nc(-c3ccc(Cl)cc3)cs2)CC1	i	1.24
32	FC(F)(F)c1nnc(-c2ccccc2)nc1Oc1ccccc1	i	-0.03
33	O=C(NNS(=O)(=O)c1ccc(Cl)cc1)C1CCN(Cc2ccccc2)CC1	i	-0.14
34	COc1ccc(O)c(CN2CCCC(C(=O)Nc3cccc(-n4cccn4)c3)C2)c1 (stereo unspecified)	i	0.18
35	COc1ccc(-c2nc3ncccc3n2O)cc1	i	3.49
36	COc1ccc(NC2CCCN(C(=O)CCn3cccn3)C2)cc1 (stereo unspecified)	i	-0.72
37	C=CCNC(=O)COc1cc(C)ccc1C	i	0.03
38	Cc1cc(C)n(-c2ccc(C(=O)Nc3cccc([N+](=O)[O-])c3)cc2)n1	i	0.94
39	COc1ccc(CN(Cc2cc3cc(C)ccc3[nH]c2=O)C(=O)N(C)C)cc1	i	1.52
40	COc1cccc(-c2noc(C3CCCN(C(=O)c4ccc(F)cc4)C3)n2)c1 (stereo unspecified)	i	-2.07
41	COc1ccc(C2C(C(=O)c3ccc(C)o3)=C(O)C(=O)N2c2cc(C)on2)cc1OC (stereo unspecified)	i	1.94
42	CCCCSc1nc(C)cc(NC(=S)Nc2ccc(OC)cc2)n1	i	-0.01
43	Cc1ccc(-c2nn(-c3ccccc3)cc2C(=O)N2CCOCC2)cc1	i	1.04
44	CC(=O)NCCn1c(SCc2ccc(C)cc2)nc2ccccc2c1=O	i	-0.68
45	Cc1cccc(C)c1OCCn1nnc2ccccc21	i	0.81
46	O=C(c1ccc(F)c(S(=O)(=O)N2CCOCC2)c1)N1CCc2ccccc21	i	0.01
47	CS(=O)(=O)c1ccc(Cl)c(NC(=O)CCCc2nc3ccccc3c(=O)[nH]2)c1	i	-0.64
48	CCCCNC(=O)Oc1cccc(N2CCCC2=O)c1	i	-0.77
49	O=C(CN(CC1CCCO1)C(=O)CNS(=O)(=O)c1ccc(F)cc1)NCc1ccc(F)cc1 (stereo unspecified)	i	-0.02
50	C=CCOn1c(=O)c(-c2cccs2)[n+]([O-])c2ccccc21	i	4.05
51	Cc1ccc(C(=O)NCCc2ccc(S(=O)(=O)N3CCCC3)cc2)cc1	i	-0.26
52	Cc1cc(C(=O)Nc2ccc3c(c2)CCC3)c2ccccc2n1	i	-0.04
53	CC(=O)c1cc(F)ccc1OCC(=O)N1CCCc2ccccc21	i	-0.56
54	CCOc1ccc(-c2cnc3n2CCCCC3)cc1	i	-1.37
55	CC(=O)Nc1ncc(Cc2cccc(Cl)c2Cl)s1	i	-1.6
56	Cc1cc(C)c2c(N)c(C(=O)c3ccc(Cl)c(Cl)c3)sc2n1	i	0.86
57	C/C(=C\c1ccccc1)CN1CCC(C(=O)N2CCCCC2)CC1	i	0.9
58	CSc1ccc(C2c3[nH]c4ccccc4c3CCN2C(=O)c2cc(C)n(C)n2)cc1 (stereo unspecified)	i	-0.57
59	CC(C)Cn1c(SCC(=O)NC(=O)Nc2ccc3c(c2)OCCO3)nc2ccccc2c1=O	i	-1.21
60	CCN1CCN(c2ccc(NC(=O)COc3ccc([N+](=O)[O-])cc3)cc2)CC1	i	-0.01
61	COc1ccc2cc(Br)ccc2c1CC(=O)N1CCCC1	i	0.15
62	CCNC(=O)NC(=O)CSc1cccc(C(F)(F)F)c1	i	-0.55
63	CC(=O)n1cc(N(C(=O)CCl)c2ccc(Cl)cc2)c2ccccc21	i	0.85
64	Cc1nn(CCCC(=O)NCc2ccccc2Cl)c(=O)c2nccn12	i	-0.11
65	COCCNC(=O)c1ccc(NS(=O)(=O)c2ccc3[nH]c(=O)[nH]c3c2)cc1	i	2.15
66	O=C(Cc1c(Cl)cccc1Cl)Nc1ccncc1Cl	i	-0.29
67	Brc1ccc(OCCOCCOc2cccc3cccnc23)cc1	i	-0.55
68	Cn1nnc(NC(=O)c2cccc([N+](=O)[O-])c2)n1	i	2.38
69	Cc1ccc(C2(C)NC(=O)N(CC(=O)NCc3ccccc3Cl)C2=O)cc1 (stereo unspecified)	i	0.05
70	Cc1ccc(N2C(=O)N3[C@H](c4cccc(C)c4)[C@@H]4C(=O)N(Cc5ccccc5)C(=O)[C@@H]4[C@]3(C)C2=O)cc1	i	-1.94
71	C=CCN(C(=O)CNC(=O)c1ccco1)C(C(=O)NC1CCCCC1)c1ccccc1 (stereo unspecified)	i	-0.01
72	CCCCN1CC[C@H]2C=CC[C@@H](C(=O)NCc3ccc(OC)cc3)[C@H]2C1=O	i	2.38
73	Cc1cc(C(=O)NCc2ccco2)no1	i	0.98
74	COc1cccc(/C=N/NC(=O)c2ccc(-c3ccccc3)cc2)c1O	i	-1.28
75	CC(=O)Nc1ccc(NC(=O)CN(c2ccc(C(C)C)cc2)S(=O)(=O)c2ccccc2)cc1	i	-0.52
76	COc1ccc(Cl)cc1N(C(C)C(=O)NC1CCCC1)S(C)(=O)=O (stereo unspecified)	i	1.05
77	COc1cccc(CC(=O)Nc2nccs2)c1	i	-0.87
78	O=c1cc(-c2ccccc2Cl)oc2c(NS(=O)(=O)c3ccccc3OC(F)(F)F)ccc(O)c12	i	-0.97
79	CC(Oc1ccc2c3c(c(=O)oc2c1)CCC3)C(=O)NCCCn1ccnc1 (stereo unspecified)	i	3.09
80	CC(C)c1ccc(N2C(=O)CC(Sc3nc4ccccc4o3)C2=O)cc1 (stereo unspecified)	i	-0.63
81	CCCCC(CC)CNC(=O)CN1C(=O)NC2(CCc3ccccc32)C1=O (stereo unspecified)	i	-0.18
82	O=C(C1CCN(S(=O)(=O)c2ccccc2)CC1)N(CCc1ccccc1)Cc1ccco1	i	-1.13
83	O=C1C(C23CC4CC(CC(C4)C2)C3)C(=O)N(c2ccccc2)N1c1ccccc1	i	0.04
84	COc1ccc(C[C@H]2CN3C(=NC[C@@H]3Cc3ccccc3)N2CCNC(=O)c2ccc(C)c(Br)c2)cc1	-5.84*	-0.43*
85	Cc1ccc(NC(=O)/C(CN(C)C)=N\O)cc1	i	9.53
86	Cc1cccc(NC2(C(F)(F)F)N=C3SCCN3C2=O)n1 (stereo unspecified)	i	0.47
87	CC(=O)Nc1ccc(-c2csc(NC(=O)Nc3ccccc3)n2)cc1	i	0.04
88	COc1ccc(CNS(=O)(=O)c2cc(-c3cc(C)no3)ccc2C(C)C)cc1	i	-1.44
89	Cc1cccc(N2CCN(C(=O)C3CCN(c4ncnc5c4nc4n5CCCCC4)CC3)CC2)c1C	i	1.37
90	COc1ccc(NC(=O)C2CCCN(c3nc(C)cc(C)n3)C2)cc1 (stereo unspecified)	i	-0.03

(next part)
no.	SMILES	KCNQ2 inh	KCNQ2 inh baseline
91	CN(C1CCS(=O)(=O)C1)S(=O)(=O)c1ccccc1[N+](=O)[O-] (stereo unspecified)	i	-0.39
92	Cc1ccc(-n2nc(C)c(/C=N/n3c(C)n[nH]c3=S)c2Cl)cc1	i	-0.93
93	CCOc1ccc(/C=N/NC(=O)CSc2ccccn2)cc1O	i	0.32
94	COc1ccc(CSc2nnc(C)n2N)cc1	i	0.23
95	CC(NC(=O)CCCc1c[nH]c2ccccc12)c1ccc(F)cc1 (stereo unspecified)	i	0.76
96	Cn1c(NN)nc2c1c(=O)n(Cc1ccccc1)c(=O)n2C	i	-1.1
97	CC1=C(C)CC(C(=O)NNC(=O)c2ccccc2O)C(C(=O)O)C1 (stereo unspecified)	i	0.03
98	CCOc1ccc(CCNC(=O)CN2C(=O)COc3ccc(S(=O)(=O)N4CCOCC4)cc32)cc1	i	0.66
99	CC1(C)Cc2c(cnn2-c2ccc(F)cc2)C(NC(=O)CN2CCCCC2=O)C1 (stereo unspecified)	i	0.07
100	Cc1cc(C)n(C(=O)c2c([N+](=O)[O-])cnn2C)n1	i	-0.67
101	CCOC(=O)c1oc2ccc(CNCCO)c(Cl)c2c1C	i	2.17
102	Cc1ccc(N2C(=O)c3ccccc3C2=O)cc1C	i	0.4
103	Cc1ccc(C)n1-c1ccc(C(=O)Nc2ccccc2)cc1	i	-0.06
104	O=C(COC(=O)c1ccc([N+](=O)[O-])s1)Nc1ncc(C(F)(F)F)cc1Cl	i	0.65
105	OC1(c2ccc(Cl)cc2)CN(c2ccccc2)C2=[N+]1CCS2 (stereo unspecified)	-7.15*	0.06*
106	Brc1ccc(-c2noc(C3CCCCC3)n2)cc1	i	0.06
107	Cc1ccc(-c2noc(C3CCCN(C(=O)c4ccccc4Br)C3)n2)cc1 (stereo unspecified)	i	-0.73
108	CN1/C(=C\C(=O)c2ccccc2Cl)c2ccccc2CC1(C)C	i	0.9
109	COc1ccc(NC(=O)CSc2nnc(-c3ccccc3C)n2C)cc1	i	-1.01
110	Cc1oc(C2CC2)cc1C(=O)O	i	0.67
111	Cc1ccc(C2N(c3ccccc3)C(=S)N3CCCN23)cc1 (stereo unspecified)	i	-0.28
112	COC(=O)c1ccc(/C=C/c2nc3ccccc3c(=O)[nH]2)cc1	i	-2.47
113	Cc1cc(NC(=O)CSc2nnnn2-c2ccccc2C)no1	i	2.5
114	CC(C)[C@H](NC(=O)N1c2ccccc2NC(=O)[C@@H]1C(C)C)C(=O)N[C@@H](Cc1ccccc1)C(=O)O	i	0.04
115	O=C(C1CCOCC1)N1CCC(CO)(CCc2ccccc2)CC1	i	0.08
116	COCc1cc(=O)[nH]c(SCC(=O)N2CCOCC2)n1	i	-1.15
117	CC1C(=O)OC(c2ccc(Cl)cc2)C(C)(C)C1=O (stereo unspecified)	i	-0.01
118	Cc1ccc(C)c(SCC(=O)OCC(=O)Nc2ncc(C(F)(F)F)cc2Cl)c1	i	0.65

Compound profiles, as listed above.
CC(C)[C@H](NC(=O)N1c2ccccc2NC(=O)[C@@H]1C(C)C)C(=O)N[C@@H](Cc1ccccc1)C(=O)O across the screens: KCNQ2 inh: i; KCNQ2 inh baseline: 0.04
Cc1ccc(C2N(c3ccccc3)C(=S)N3CCCN23)cc1 (stereo unspecified) across the screens: KCNQ2 inh: i; KCNQ2 inh baseline: -0.28

Source: PubChem
